Screens (PubChem BioAssay)
ALR inh – inhibitors of human sulfhydryl oxidase ALR. P55789. purified ALR, DTT oxidation, H2O2 HRP-luminol luminescence. inhibition, % (concentration not given with the values). hit rate 3.8% among 290,000. AID 485317;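 active = mean and each replicate at 75% or more; inconclusive = only one of the two met; inactive = neither met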;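 also: stock transfer was 7.5 nL into about 7.5 µL; 0% = neutral wells and 100% = wells with inactivated enzyme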
Target sequence (P55789 whole entry, looked up): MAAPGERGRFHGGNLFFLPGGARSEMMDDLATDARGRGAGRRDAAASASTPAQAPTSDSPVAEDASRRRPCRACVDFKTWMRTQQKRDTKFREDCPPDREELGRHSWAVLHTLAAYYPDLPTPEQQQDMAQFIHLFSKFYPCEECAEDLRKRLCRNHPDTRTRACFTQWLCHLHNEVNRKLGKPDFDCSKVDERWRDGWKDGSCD
rRNA inh HTS – inhibits bacterial ribosomal RNA function over humanized ribosomes; GFP signal change (wild-type ribosome), % (concentration not given with the values); hit rate 1.6% among 350,000; E. coli WT GFP vs humanized-ribosome RFP mutants, fluorescence, 24 h; stronger effect = lower value; DMSO median 0, no signal -100; AID 720706;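 active = significant combined selectivity score with lowered wild-type GFP, culture density cut under 30%, mutant RFP and density less affected; inactive = any of these conditions unmet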; also: one replicate is shown; some compounds called inactive have numbers as strong as hits
Ecoli growth – blocks Escherichia coli growth; hit rate 0.21% among 330,000; OD600, 23 h; stronger effect = lower value; AID 1053175; OD600 absorbance (test concentration not listed);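 active = OD600 absorbance below the run mean of sample wells minus 3.6 SD, in any replicate, cut at about 0.56 in these data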;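 also: stock transfer was 300 nL into about 60 µL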
HNF4A DNA FP – change in binding of human HNF4 alpha to DNA; HNF4a-FITC DNA binding, fluorescence polarization, 1 h; hit rate 0.3% among 360,000; activity change, % at 10 µM; P41235; in the data active = activity change above about 30%, passing the limit was not always enough;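 also: controls were the assay level and a saturating level of protein; the project sought stronger binding though the title names inhibitors; some compounds called inactive have numbers as strong as hits; positive values seem to mean higher polarization but the record does not say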
Target sequence (P41235 whole entry, looked up): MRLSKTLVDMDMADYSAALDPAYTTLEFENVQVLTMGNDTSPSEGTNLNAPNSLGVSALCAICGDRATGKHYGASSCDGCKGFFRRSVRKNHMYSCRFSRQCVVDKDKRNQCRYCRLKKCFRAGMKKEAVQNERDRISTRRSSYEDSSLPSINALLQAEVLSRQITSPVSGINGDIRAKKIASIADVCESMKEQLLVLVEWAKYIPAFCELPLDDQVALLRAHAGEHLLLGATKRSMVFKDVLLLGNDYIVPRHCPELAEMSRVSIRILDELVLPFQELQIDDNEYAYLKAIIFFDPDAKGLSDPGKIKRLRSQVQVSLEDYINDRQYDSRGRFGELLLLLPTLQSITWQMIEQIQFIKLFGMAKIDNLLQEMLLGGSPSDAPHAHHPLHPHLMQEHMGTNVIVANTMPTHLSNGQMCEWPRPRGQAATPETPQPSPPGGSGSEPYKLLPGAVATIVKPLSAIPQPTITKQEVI
FGF22 binding – FGF22 (human) thermal shift binding | recombinant FGF22 thermal shift, SYPRO orange fluorescence; percent of sucrose octasulfate shift, DMSO zero | calls only at 9.99 µM | hit rate 1.5% among 340,000 | AID 651658;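 active = melting point raised past a set limit in the mean and every replicate; inconclusive = no clear call; three in four hits are not shown here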
Target sequence (Q9HCT0 whole entry, looked up): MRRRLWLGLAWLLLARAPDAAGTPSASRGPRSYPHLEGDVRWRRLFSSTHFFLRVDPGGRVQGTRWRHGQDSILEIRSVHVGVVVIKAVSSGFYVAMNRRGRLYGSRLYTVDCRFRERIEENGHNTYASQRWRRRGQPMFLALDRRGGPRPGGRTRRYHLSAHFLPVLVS
Vif TR-FRET – HIV-1 Vif–A3G interaction blockers – biochemical, TR-FRET, GST-Vif 1-94, biotin-A3G peptide, dose response retest, primary screen (AID 1117319) | TR-FRET GST-Vif / biotin-A3G peptide binding; higher % means a stronger effect; test concentration not given here; strong numbers were not always called active | one-dose inhibition, %; IC50 in µM for titrated hits | hit rate 0.57% among 260,000;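 active = above the screen mean plus three standard deviations and confirmed in dose response; inconclusive = results disagree or hit not tested in dose response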;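 also: Vif residues 1-94 fused to GST binding biotinylated APOBEC3G peptide 110-148; 0% = full assay without inhibitor and 100% = GST in place of GST-Vif; retest series ran down from 100 µM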
AF4-AF9 inh – blocks AF4 peptide binding to human AF9. P42568. AlphaScreen, biotin-AF4 peptide binding to FLAG-AF9. inhibition, % at 10 µM. hit rate 0.47% among 350,000. AID 651704;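 active = every replicate reaching a set inhibition limit, whatever the replicate mean, cut at about 25% in these data; inconclusive = mean inhibition reaches that limit but some replicates miss it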;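 also: 0% = plate neutral control median and 100% = total signal loss; the record names both 10 and 1 µM as test concentration; the first replicate is given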
rRNA inh HTS OD600 – also measured in rRNA inh HTS; calls as there; OD600 change, %; measured here: OD600 growth;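 optical density of the mix in the first replicate; 0 = DMSO median and -100 = no signal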
rRNA inh HTS RFP – recorded beside rRNA inh HTS, whose call it bears; RFP signal change, %; measured here: RFP humanized mutant strains;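 first replicate; 0 = DMSO median and -100 = no signal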
* hit, by the source's call; i = inactive; ? = inconclusive; . = not tested or not shown. An excerpt; rates above refer to the full screens.

Molecule,rRNA inh HTS RFP,Ecoli growth,FGF22 binding,rRNA inh HTS OD600,HNF4A DNA FP,AF4-AF9 inh,Vif TR-FRET,ALR inh,rRNA inh HTS
O=C(C[C@H]1C[C@@H]2c3cc(NC(=O)c4cccnc4)ccc3O[C@@H]2[C@H](CO)O1)NC1CCCCC1,-2.9,.,i,-2,.,-0.7,.,.,2
CC(=O)Nc1ccc(NC(=O)c2c(-c3ccccc3Cl)noc2C)c(C)c1,-0.4,0.69,i,-5,0.7,-0.5,8%,7,7
CO[C@H]1CN(C)C(=O)c2cc(NC(=O)c3cc(C)on3)ccc2OC[C@H](C)N(C)C[C@@H]1C,-3.3,.,i,2,.,-2.8,.,.,0
CCc1cc2c(SCC(=O)Nc3cc(C)on3)ncnc2s1,0.6,0.72,i,11,8.0,-3.1,.,7,6
Cc1ccc(S(=O)(=O)N(C)C[C@@H]2Oc3c(NC(=O)c4ccc(-c5nccs5)cc4)cccc3C(=O)N([C@H](C)CO)C[C@@H]2C)cc1,1.2,.,i,-7,.,-0.7,.,.,-6
CCCCn1nc(C(=O)N2CCN(S(=O)(=O)c3ccccc3)CC2)c2ccccc2c1=O,0.9,0.64,i,-26,3.1,-5.9,-7%,-2,-14
C=CCC[C@@H](Cc1ccc(F)cc1)C(=O)OC[C@@H](Cc1c[nH]c2ccccc12)NC(=O)[C@@H](CC=C)CC(=O)N[C@@H](CO)Cc1ccccc1,-4.0,.,i,6,3.7,-1.7,.,-1,16
Cc1nc(N2CCN(c3ccccc3)CC2)[nH]c(=O)c1Cc1ccccc1,.,0.75,.,.,0.3,.,0%,-1,.
COc1ccc(N2C(=O)C3[C@@H](C2=O)C2(Cl)C(Cl)=C(Cl)C3(Cl)C2(OC)OC)cc1 (stereo partly drawn),.,0.69,.,.,-0.8,.,-2%,.,.
CN1C(=O)CC(N2CCN(c3ncccn3)CC2)C1=O (stereo not drawn),.,0.69,.,.,-5.4,.,4%,-5,.
COC(=O)c1[nH]c2cccc(OC)c2c1NC(=O)CN1CCC(C(N)=O)(N2CCCCC2)CC1,5.2,0.69,.,18,-3.1,.,2%,-10,20
COc1ccccc1CC(=O)NNC(=O)CN(C)S(=O)(=O)c1ccc(Cl)cc1,-1.0,0.7,i,3,0.1,-0.8,-1%,.,0
CCCNC(=O)c1cc(C2CCCN(C(=O)C3CCCCC3)C2)on1 (stereo not drawn),-4.0,.,i,8,0.1,-2.5,.,.,-1
COc1ccc(CN(C)C[C@H]2OCCCC[C@@H](C)Oc3ccc(NC(=O)Nc4ccc(F)cc4)cc3C(=O)N([C@@H](C)CO)C[C@@H]2C)cc1,8.0,.,i,-56,.,22,.,.,-41
COc1ccc(OCCSc2nnc(-c3ccc(OC)cc3)n2N)cc1,.,0.74,.,.,2.2,.,8%,-6,.
COc1ccc(S(=O)(=O)Nc2ccc3c(c2)CC(=O)N([C@H](C)CO)C[C@@H](C)[C@@H](CN(C)CC2CCCCC2)O3)cc1,-0.8,.,i,2,.,0.5,.,.,4
C[C@@H]1CN([C@@H](C)CO)C(=O)c2cc(-c3cccc(C#N)c3)cnc2O[C@H]1CN(C)C(=O)c1ccccn1,-0.1,.,i,1,.,-3.2,.,.,2
C[C@H](CO)N1C[C@H](C)[C@H](CN(C)C(=O)c2ccccc2F)Oc2ncc(-c3ccccc3)cc2C1=O,-1.1,.,i,-2,.,-3.8,.,.,2
CC(C)=C1C2CCC1C(C(=O)NCCc1ccccc1)C2C(=O)O (stereo not drawn),.,0.65,.,.,-3.6,.,3%,-3,.
CCOc1ccccc1CNc1nnnn1C,-1.8,0.71,i,6,1.9,4.7,-6%,-5,8
CNC(=O)C[C@@H]1CC[C@H]2[C@H](COc3ccc(NC(=O)C4CCCCC4)cc3C(=O)N2C)O1,-2.5,.,i,5,.,-0.8,.,.,2
Cc1cc(C)nc(NNS(=O)(=O)c2c(C)cc(C(C)(C)C)cc2C)n1,0.9,0.68,.,5,-2.6,-2.5,5%,.,7
CCOC(=O)c1nc(SC)n(C)c1C(=O)OCC,0.0,0.66,i,0,-4.2,-1.9,-7%,-2,0
CC(=O)c1sc2c(c1OC(=O)c1ccccc1)c(=O)n(-c1ccccc1)c(=S)n2-c1ccccc1,7.9,.,i,5,1.5,0.5,-13%,.,0
COc1ccc(CCn2c(C)cc(C(=O)CCl)c2C)cc1OC,13,0.7,i,19,1.0,4.7,.,29,17
CC(=O)Nc1ccc(/C=N/NC(=O)c2cccs2)cc1,0.3,.,i,7,-3.1,0.7,.,3,13
CCCN(CCc1ccccc1)C1CCc2c(O)cccc2C1 (stereo not drawn),.,0.68,i,.,-0.7,4.9,.,-3,.
O=C1C2=C(SCCS2)C(=O)N1c1ccccc1,.,0.68,.,.,1.6,.,7%,-1,.
O=C(Nc1ncccc1Cl)c1cccc(F)c1,.,0.68,.,.,2.5,.,3%,-2,.
COc1ccc(-n2nc(C(=O)NCC(=O)NCCCN3CC(C)CC(C)C3)c3ccccc3c2=O)cc1 (stereo not drawn),2.3,0.67,i,13,-1.6,-6.3,?,-6,11
CCCc1c(C)nc(N2CCN(c3ccccc3OC)CC2)[nH]c1=O,-0.9,0.67,i,1,-0.1,-4.0,.,.,7
CC(C)c1nc(-c2c(N)n(C)c(=O)n(C)c2=O)sc1C(=O)C(C)(C)C,.,0.75,.,.,-4.0,.,-1%,-4,.
Cc1ccccc1NC(=O)N1CCCC(c2nc(-c3ccc(F)cc3)no2)C1 (stereo not drawn),.,0.74,.,.,-2.4,.,2%,-1,.
CCCCCOC(=O)C1C(c2ccccc2)C(C(=O)O)C1c1ccccc1 (stereo not drawn),7.7,0.72,i,-8,3.5,-3.6,3%,.,-11
O=C(Nc1ccc(F)cc1)Nc1ccc2c(c1)[C@@H]1C[C@H](CC(=O)N3CCOCC3)O[C@@H](CO)[C@@H]1O2,0.2,.,i,-7,.,-7.6,.,.,1
COCC(=O)Nc1ccc2c(c1)C(=O)N(C)C[C@H](OC)[C@@H](C)CN(C(=O)c1cnccn1)[C@H](C)CO2,0.0,.,i,6,.,-1.9,.,.,4
Cc1ccc(NC(=O)COC(=O)CN2C(=O)NC(C)(C)C2=O)cc1S(=O)(=O)N1CCOCC1,-0.8,0.72,i,12,-0.7,-4.5,11%,3,13
O=C(CN1C(=O)NC2(CCc3ccccc32)C1=O)c1ccc(Cl)cc1 (stereo not drawn),-2.7,0.7,i,-15,1.0,0.1,6%,-10,-20
Cc1c(Cl)cccc1NC(=S)N1CCN(S(=O)(=O)c2cccs2)CC1,-2.7,0.68,i,-13,-0.8,-1.4,10%,-13,-5
Cc1ccc(S(=O)(=O)N[C@@H]2CC[C@@H](CC(=O)N3CCc4ccccc4C3)O[C@@H]2CO)cc1,-0.7,.,i,-8,.,-3.5,.,.,-2
CCNC(=O)Nn1c(-c2ccccc2)nc2ccccc2c1=O,.,0.78,.,.,-3.8,.,3%,2,.
Cn1c(N)cc(-c2ccc(F)cc2)c(C#N)c1=O,-1.5,0.64,i,3,1.2,-0.5,-1%,-5,-3
CCc1ccc2[nH]c(=O)c(CN(CCN(C)C)C(=O)Nc3ccccc3OC)cc2c1,.,0.68,.,.,1.4,.,?,-8,.
CC(C(=O)Nc1ccc2[nH]c(=O)[nH]c2c1)N1CCN(Cc2ccc3c(c2)OCO3)CC1 (stereo not drawn),2.4,0.72,i,5,-4.1,-0.9,1%,-1,7
CS(=O)(=O)c1ccc(Cl)c(NC(=O)C2CC(=O)N(c3ccc4c(c3)OCCO4)C2)c1 (stereo not drawn),-3.0,0.71,i,3,1.3,-0.3,2%,0,2
OCC1OC(n2cnc3c(N4CCCC4)ncnc32)C(O)C1O (stereo not drawn),-0.2,.,i,12,0.0,-2.5,5%,.,2
CCOC(=O)N1CCN(c2ccc(C(F)(F)F)cn2)CC1,0.3,0.71,i,13,-4.4,6.2,-4%,.,2
CCOC(=O)c1cnn2c(C(F)F)cc(C3CC3)nc12,.,0.72,.,.,-2.8,.,-3%,18,.
C[C@@H](NC(=O)[C@H]1[C@H](CO)[C@H]2Cn3c(ccc(C4=CCCC4)c3=O)[C@@H]1N2C(=O)C1CC1)c1ccccc1,-0.4,.,i,-8,.,-2.0,.,.,-3
CCCCCn1c(N2CCCC2)nc2c1c(=O)n(C)c(=O)n2C,-4.6,0.65,i,9,5.7,0.8,3%,98*,-2
Cc1ccc(NC2=CC(=O)OC(C)C2)cc1 (stereo not drawn),.,0.68,.,.,-0.6,.,2%,-9,.
O=C(Nc1ccc(Cl)cc1)c1sccc1-n1cccc1,-1.1,0.69,i,6,-1.7,1.8,-5%,0,6
COc1ccccc1C(=O)Nc1ccc2c(c1)nc(CCNC(C)=O)n2C,-1.6,0.71,.,0,0.4,.,2%,4,0
Cc1cc(C)cc(NC(=O)Cc2ccc(NC3=NC4CS(=O)(=O)CC4S3)cc2)c1 (stereo not drawn),0.7,0.67,i,7,0.4,1.0,.,-5,8
Nc1nc(NCc2ccco2)nc(N2CCCCC2)c1[N+](=O)[O-],.,0.68,.,.,-2.0,.,16%,-4,.
Cc1nc2ccccc2c2oc(C(=O)NC3CC3)cc12,7.6,0.75,i,-7,1.0,0.8,-3%,-2,-8
CCn1c(C)nc2cc(C(=O)N/N=C(\C)c3ccc(OC)cc3O)ccc21,-6.1,.,i,-18,-1.0,3.3,.,.,-22
CCC(CC)C(=O)NCCCN1CCOCC1,.,0.72,i,.,-1.1,1.4,.,23,.
CSCCC(NC(=O)COc1ccccc1)C(=O)N1CC(C)OC(C)C1 (stereo not drawn),0.2,0.68,i,13,2.2,-3.2,-15%,3,20
COc1ccc(-c2ccc3c(c2)O[C@H](CN(C)C(=O)c2ccccc2F)[C@@H](C)CN([C@H](C)CO)S3(=O)=O)cc1,-2.0,.,i,-4,.,1.8,.,.,-6

One compound at a time (already shown). Order of values: rRNA inh HTS RFP, Ecoli growth, FGF22 binding, rRNA inh HTS OD600, HNF4A DNA FP, AF4-AF9 inh, Vif TR-FRET, ALR inh, rRNA inh HTS
Results for `CCCCCn1c(N2CCCC2)nc2c1c(=O)n(C)c(=O)n2C` → -4.6, 0.65, i, 9, 5.7, 0.8, 3%, 98*, -2
Results for `CCn1c(C)nc2cc(C(=O)N/N=C(\C)c3ccc(OC)cc3O)ccc21` → -6.1, ., i, -18, -1.0, 3.3, ., ., -22
Results for `Cn1c(N)cc(-c2ccc(F)cc2)c(C#N)c1=O` → -1.5, 0.64, i, 3, 1.2, -0.5, -1%, -5, -3

Continued.
Molecule,rRNA inh HTS RFP,Ecoli growth,FGF22 binding,rRNA inh HTS OD600,HNF4A DNA FP,AF4-AF9 inh,Vif TR-FRET,ALR inh,rRNA inh HTS
CO[C@@H]1CN(C)C(=O)c2cc(NC(=O)Nc3cc(F)ccc3F)ccc2OC[C@@H](C)N(C)C[C@H]1C,3.0,.,i,-10,.,1.2,.,.,-3
CCCCN(C)C(=O)c1ccc(S(=O)(=O)N2CCOCC2)cc1,.,0.79,.,.,0.7,.,0%,.,.
Cc1ccc(S(=O)(=O)C(CNC(=O)C(C)C)c2cccs2)cc1 (stereo not drawn),3.9,0.65,i,-2,3.7,-1.0,1%,-1,5
O=C(CCNC(=O)c1ccco1)NCc1ccc(C(=O)O)cc1,-2.2,0.71,i,6,2.3,-2.5,5%,-7,7
